# UUG fidelity – yeast start codon fidelity modulation. AID 602363. S. cerevisiae UUG-firefly luciferase reporter, luminescence/redox ratio. activity score, % at 18.7 µM. actives 0.13% (n = 350,000);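 active = replicate mean at a twofold rise or more, about +100% in these data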;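 note: firefly luciferase made from a UUG start codon reports start codon fidelity; reporter light over untreated wells divided by growth signal over untreated wells; some hits fall short of that in this replicate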
# Rce1 inh – yeast Ras-converting enzyme inhibition; calls only; actives 0.27% (n = 290,000); AID 2563; yeast membranes, quenched prenylated peptide cleavage fluorescence;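 active = fall in fluorescence gain of 50% or more versus controls, with final raw signal at or below 3038400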;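 note: plate controls were neutral control wells for no effect and wells lacking membranes for full effect; tested at 10 µM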
# Target sequence (Q03530 whole entry, looked up): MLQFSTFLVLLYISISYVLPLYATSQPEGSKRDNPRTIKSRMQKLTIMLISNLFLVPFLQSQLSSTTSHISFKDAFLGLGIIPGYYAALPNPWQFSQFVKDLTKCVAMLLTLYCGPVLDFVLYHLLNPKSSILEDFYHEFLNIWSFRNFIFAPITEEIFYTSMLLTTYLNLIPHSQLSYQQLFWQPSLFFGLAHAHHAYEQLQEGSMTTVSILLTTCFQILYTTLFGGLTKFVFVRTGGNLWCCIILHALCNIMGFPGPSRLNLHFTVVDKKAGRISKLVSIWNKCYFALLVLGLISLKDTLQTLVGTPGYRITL
# PABP polyA inh – blocks human PABP binding to poly(A) RNA | P11940 | fluorescence polarization | inhibition, % at 35 µM | actives 1% (n = 290,000);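 active = 50% or more with normal probe brightness, or confirmed in later tests; about a fifth of its hits are not listed in these tables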;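 note: calls also rest on retests at 20 µM and on dose response follow-up; controls were probe without protein and protein plus probe with vehicle; some compounds called inactive have numbers as strong as hits; many hits fall short of the cut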
# eIF4H inh – inhibitors of RNA binding by human eIF4H | Q15056 | eIF4H fluorescence polarization binding assay | inhibition, % at 35 µM | actives 0.94% (n = 290,000) | AID 2012;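 active = 50% or more with normal probe brightness, or confirmed in later tests; about a fifth of its hits are not listed in these tables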;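 note: calls also rest on retests at 20 µM and on dose response follow-up; 0% = protein and probe with vehicle and 100% = probe without protein; strong numbers were not always called active; many hits fall short of the cut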
# Env fusion inh – inhibitors of HIV Env-mediated cell fusion. HeLa-JRFL Env/CEM21 cell fusion, luciferase. inhibition, % at 12.3 µM. actives 1.1% (n = 360,000). AID 651610;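 active = mean replicate inhibition score of at least 50 and every replicate individually at or above 50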;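 note: 0% = plate neutral controls and 100% = maraviroc near 300 nM; one replicate is shown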
# CSC inhib – cancer stem cell inhibition; cancer stem cell-like cells viability, luminescence; inhibition, % at 7.5 µM; actives 1.1% (n = 300,000);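 active = mean at 75% or more and at least half the replicates too; tested in HMLE shEcad cells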;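 note: 0% = median of negative and 100% = median of positive control wells; the first replicate is given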
# MT1-MMP act inh – blocks activation of human MT1-MMP; GFP/RFP ratio change, % at 20 µM; actives 0.061% (n = 360,000); P50281; HT1080 RFP-PRO-GFP cells, GFP/RFP ratio fluorescence, overnight; percent of plate control window, DMSO zero;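 active = GFP/RFP ratio change of at least 30% with cell ATP level not reduced by more than half and red fluorescence within 50% of control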; note: strong numbers were not always called active
#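 Assay system: RFP-PRO-GFP reporter HT1080 cells; read-out basis: GFP/RFP fluorescence ratio; benchmarks: DMSO wells and RFP-L50D-GFP cells; doses: 20 µM single dose, 1% DMSO; schedule: overnight cell settling, then overnight compound exposure, 37 °C, 5% CO2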
# eIF4H inh retest – recorded beside eIF4H inh, whose call it bears; inhibition, %; compound at 20 µM; confirmation average;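 mean of two retest wells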
# PABP polyA inh retest – recorded beside PABP polyA inh, whose call it bears; inhibition, %; compound at 20 µM; confirmation repeats;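 mean of two retest wells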
# MT1-MMP act inh RFP – second read-out of MT1-MMP act inh, no call of its own (marks repeat the call); RFP signal change, %; measured here: RFP expression control read;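 0 = vehicle wells; hits needed this value within 50% of zero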
# * marks the source's active call; other numbers are inactive results; i = inactive; . = not tested or not shown; & = joins results of further samples; [ ] = dose if it differs, or a comment. Hits appear at their usual frequency; about 2.9% have a hit in one of these screens.
SMILES,UUG fidelity,Rce1 inh,PABP polyA inh,eIF4H inh,Env fusion inh,CSC inhib,MT1-MMP act inh,MT1-MMP act inh RFP,others
COc1cc2nc(CN(C)Cc3ccc(C(C)(C)C)cc3)[nH]c(=O)c2cc1OC,.,i,4,0,21,2,4,-4,
COc1ccc(C(=O)Nc2c(N)nc(SCC(=O)Nc3ccc(C(C)=O)cc3)[nH]c2=O)cc1,-20,i,-1,-9,-1,-5,4,6,
CCC(O)(C(=O)Nc1ccccc1C(F)(F)F)c1ccccc1OC (centres undefined),-24,.,.,.,-8,16,3,0,
Cc1cccc(NC(=O)CCc2nnc3ccc(N4CCC(C)CC4)nn23)n1,-16,i,.,.,.,-3,2,5,
O=C(CNS(=O)(=O)c1ccccc1)Nc1cccc([N+](=O)[O-])c1,.,i,5,3,13,2,2,-1,
CCOC(=O)c1cnn(CCOC(=O)C2CC2)c1NC(=O)C1CC1,-7,i,-3,-3,20,-12,-1,5,
O=C(N/N=C/c1ccncc1)c1cc([N+](=O)[O-])cc([N+](=O)[O-])c1,-11,i,21,-2,0,-6,-4,-2,
CC1CCCC(C)N1C(=C(Cl)Cl)C(=C1SCCS1)[N+](=O)[O-] (centres undefined),.,.,3,2,23,40,-3,-2,
COc1cc(=O)n(C)c2cc(N(C)C)ccc12,-7,i,17,-6,.,7,9,5,
CCN1CCCC1CNS(=O)(=O)c1cccc(C(F)(F)F)c1 (centres undefined),.,i,0,-2,1,7,2,0,
Cc1cc(O)c(CN(C)C)c2c1C(=O)/C(=C/c1ccco1)O2,-12,i,71*,94*,17,-3,-17,0,
CC1Oc2ccccc2C=C1/C=N/NC(=O)c1ccncc1 (centres undefined),.,i,-9,-7,20,-2,6,-17,
COc1cc2c(cc1OC)C1Cc3ccc(OC)c(OC)c3C[N+]1([O-])CC2 (centres undefined),-14,i,3,-6,-15,-2,2,2,
O=C(/C=C/c1ccc(F)cc1)NC(=S)N1CCOCC1,.,i,14,6,-15,-5,-1,3,
Cc1cc(O)c(NC(=O)c2ccco2)cc1C,-8,i,-6,4,-110,-10,5,0,
CCOC(=O)/C(C#N)=C/c1cc2ccc(C)cc2nc1Cl,.,i,3,-5,-15,-14,1,5,
Cc1ccc(S(=O)(=O)N2CCOCC2)cc1NC(=O)COC(=O)c1ccccc1OCc1c(C)noc1C,.,i,11,1,7,-16,8,1,
CC1(C2CC2)NC(=O)N(CC(=O)N2CCN(c3ccc(F)cc3)CC2)C1=O (centres undefined),-5,.,.,.,-21,.,3,5,
O=C1N[C@@H](Cc2ccccc2)C(=O)N2[C@@H]3N(S(=O)(=O)c4ccccc4)c4ccccc4[C@]3(Br)C[C@@H]12,-4,i,.,.,-17,-21,1,-4,
O=C(CCc1ccc(CCC(=O)c2cccs2)s1)c1cccs1,-26,i,4,11,.,-8,7,0,
C=CCN(C(=O)c1csnn1)C(C(=O)NC1CCCCC1)c1ccccc1F (centres undefined),-29,i,3,-5,27,.,0,1,
O=S(=O)(c1ccccc1)N(CC(O)COc1ccccc1)c1ccccc1 (centres undefined),9,i,5,7,10,-19,1,0,
C[C@@H](NC(=O)c1nc[nH]c1C(=O)N[C@@H](Cc1ccccc1)C(=O)OC(C)(C)C)c1ccccc1,-16,i,1,1,32,48,-19,-15,
CN1N=C(C(C)(C)C)CC1=O,.,i,-9,0,4,1,.,.,
CCc1ccccc1NC(=O)c1ccc(-c2csc(C)n2)cc1,-8,i,-4,-9,-24,-10,1,2,
CSc1nc2c(c(=O)n1-c1ccccc1)SCC2,-6,i,-1,-4,.,10,7,4,
Cc1cc(C(=O)N/N=C/c2ccccc2[N+](=O)[O-])c(C)o1,.,i,3,-7,-8,5,-1,0,
COc1ccccc1N(CC(=O)N1CCCCCC1)S(C)(=O)=O,-25,i,-7,1,.,-1,7,1,
O=C(Nc1ccccc1)c1ccc(CN2CCc3ccccc3C2)cc1,.,i,-1,4,61*,18,-2,-23,
N#CSC(c1ccccc1)c1nc2ccccc2[nH]c1=O (centres undefined),-11,i,16,2,-1,2,2,3,
COc1ccc(-c2nnnn2-c2ccc(F)cc2F)cc1,-9,i,2,-3,3,.,0,2,
COc1ccc(Nc2nnc(SC(C)C(=O)NC3CC3)s2)cc1 (centres undefined),-15,.,.,.,1,-13,-2,-1,
CC1(C)CC(=O)C=C(NCCN2CCN(C(=S)Nc3ccccc3)CC2)C1,-7,i,1,-3,0,-10,1,7,
O=C(Nc1cc(C(F)(F)F)ccc1N1CCOCC1)c1cccc(F)c1,12,i,3,26,.,9,3,2,
COCCn1c(SCc2cccnc2)nnc1-c1ccco1,-17,i,12,2,-47,9,-11,-3,
COC(=O)C1=C(C)N(CCCC(=O)O)C(=O)NC1c1ccc(Cl)cc1 (centres undefined),-6,i,.,.,-12,6,0,1,
Cc1cc(C)cc(N2CC(c3nc4ccccc4n3C)CC2=O)c1 (centres undefined),-15,i,28,-8,15,-1,-7,-1,
Nc1c(C(=O)Nc2ccc(Cl)cc2)sc2nc(N3CCOCC3)c3c(c12)CCCC3,-23,i,7,-9,9,-7,1,-3,
CCCCN(CC)CCCNC(=S)Nc1ccc2nc(N3CCN(CC)CC3)cc(C)c2c1,-25,i,-10,5,-11,2,0,6,
Cc1ccc(S(=O)(=O)N2CCN(CC(=O)NC3CCCc4ccccc43)CC2)cc1C (centres undefined),21,i,1,-5,12&-74,-14,-3&-1,-5&-6,
Cc1c(C(=O)N(Cc2ccncc2)CC2CCCO2)oc2c(F)cccc12 (centres undefined),-12,i,12,7,36,2,-7,-2,
COc1ccc(-c2cccc(-c3cc(=O)oc4cc(OC)c(OC)c(OC)c34)c2)cc1,-28,.,.,.,50*,.,-6,-10,
Cc1ccc(/C=C/C(=O)NN2CCN(C)CC2)cc1,-17,i,-2,12,-2,3,-3,-4,
CC(=O)N(CCC(c1ccco1)C(C)C)Cc1ccc(Cl)cc1 (centres undefined),5,i,-5,-11,-31,-4,-2,1,
COc1ccccc1OCCNC(=O)c1cccc(S(=O)(=O)N2CC(C)OC(C)C2)c1 (centres undefined),12,i,-8,-1,-3,2,2,1,
COCCNc1nnc(SCC(=O)N2CCN(S(=O)(=O)c3ccccc3)CC2)s1,-3,i,-9,-13,31,-9,-1,3,
COc1ccc(NC(=O)CC2CCCCC2)cc1OC,-12,i,1,-5,-24,14,0,0,
COc1ccc(-c2noc(-c3ccc(Cl)cc3[N+](=O)[O-])n2)cc1OC,.,i,19,0,-7,14,4,1,
CCOc1cc(N2CCOCC2)c(OCC)cc1NC(C)C(=O)N1CCC(C)CC1 (centres undefined),.,i,0,15,-2,2,2,4,
CC(=O)Nc1ccc2ccccc2c1,-9,i,-1,-3,.,-8,-3,1,
NNC(=O)CNC(c1ccccc1)c1cc(Cl)ccc1NC(=O)c1ccccc1 (centres undefined),-2,i,17,11,12,-16,-4,0,
O=C1c2ccccc2NC(c2ccc(Br)s2)N1O (centres undefined),.,i,.,.,-16,10,.,.,
Cc1ccccc1N/C(SCc1ccc(Cl)cc1)=C(/C#N)C(N)=O,-15,i,0,-7,-6,21,-6,-3,
Cc1ccc(/C=C(\NC(=O)c2ccccc2)C(=O)NCCc2ccccn2)o1,.,i,-12,21,-3,1,-2,3,
CCC(=O)Nc1sc(Cc2ccc3c(c2)OCO3)c(C)c1C(N)=O,.,i,-4,-9,4,8,2,-2,
Cc1ccc(S(=O)(=O)NCCSc2ccccc2)cc1[N+](=O)[O-],-10,i,-8,-2,19,0,-1,2,
CCOc1ccc2c(c1)c(=O)c(S(=O)(=O)c1ccc(CC)cc1)cn2C,-6,i,11,-2,8,-5,-21,2,
COc1ccccc1-c1ccc(SCc2cccc(C)c2)nn1,.,i,3,-10,-18,39,-3,-1,
Cc1nc(CSc2n[nH]c(=O)n2-c2ccccc2)cs1,-10,i,-8,-16,0,1,3,7,
CCn1c(SCc2nc3ccccc3[nH]2)nnc1-c1cccs1,-26,i,-8,0,.,5,-3,-7,

# (more compounds)
SMILES,UUG fidelity,Rce1 inh,PABP polyA inh,eIF4H inh,Env fusion inh,CSC inhib,MT1-MMP act inh,MT1-MMP act inh RFP,others
COc1ccc(CN2C(=O)C(Cc3ccccc3)Nc3ncnc(N4CCN(c5ccccc5)CC4)c32)cc1 (centres undefined),-11,i,.,.,0,12,-9,-7,
C[C@H](NC(=O)OC(C)(C)C)C(=O)N/N=C/c1cccc2nccnc12,-3,i,-4,-17,-4,-1,0,-1,
Cc1cc2c(cc1C)[n+](C)cn2CC(O)COCC1CC=CCC1 (centres undefined),.,i,78*,2,-24,10,-3,-10,
CC(OC(=O)c1cccc([N+](=O)[O-])c1)C(=O)N1CCc2ccccc21 (centres undefined),-5,.,.,.,-1,-16,1,1,
C[C@@H]1CN([C@@H](C)CO)C(=O)CCCn2nncc2CO[C@H]1CN(C)C(=O)c1ccc2ccn(C)c2c1,-17&-11&-6,.,.,.,-6[16.7 µM],.,4,6,
CC1=NN(c2ccc(Cl)cc2)C(=O)C1C(c1cccc(O)c1)c1c(C)[nH]n(-c2ccc(Cl)cc2)c1=O (centres undefined),.,i,-6,-3,.,56,14,-23,
O=C(CCn1c(=O)oc2ccccc21)NCCCN1CCN(c2ccc(F)cc2)CC1,.,i,-12,1,-136,7,0,-1,
CC1Cc2cc(/C=C3/SC(=S)NC3=O)ccc2O1 (centres undefined),-3,i,0,4,-84,57,-3,-1,
CN(C(=O)c1c(Cl)cnn1C)C12CC3CC(CC(C3)C1)C2,.,i,87*,-5,-22,-8,3,1,eIF4H inh retest=22;PABP polyA inh retest=75*
CCCCN1C=CC(=C2C(=O)c3ccccc3C2=O)C=C1,-93,i,-7,-4,84*,68,4,3,
COc1ccccc1N1CCN(C(=O)C2CCN(S(=O)(=O)c3ccc(C)cc3)CC2)CC1,.,i,-6,-7,-2,2,2,-3,
COc1cc(/C=C2\C(=N)N3N=CSC3=NC2=O)cc(Br)c1OC(=O)c1ccco1,.,.,-3,5,-6,-7,-108,7,
O=C(CCn1c(=O)oc2ccccc21)N1CCCCCC1,-22,i,-2,-9,-36,-16,-19,-8,
CC(Oc1cc2oc(=O)c3c(c2cc1Cl)CCC3)C(=O)NCc1ccncc1 (centres undefined),-3,i,9,-6,-1,9,4,-3,
Cc1ccsc1/C=N/n1c(-c2ccccn2)n[nH]c1=S,-21,i,-7,0,-5,9,-2,2,
COc1ccc2sc(NC(=O)c3ccco3)nc2c1,-47,i,18,-2,.,15,9,0,
COc1ccccc1N1CCN(C(=O)c2onc(C)c2Cl)CC1,8,i,-6,7,-9,0,-3,1,

# Assay outcomes as filed in PubChem.
